SARS PLP yeast – SARS-CoV PLP inhibition in yeast | S. cerevisiae expressing SARS-CoV PLpro, growth rescue; control for the full effect not named in the record | Potency, µM (series often up to 32.9 µM), inactives show top-dose activity, positive = growth rescue | actives 0.19% (n = 330,000) | AID 485353; active means well fitted rising curve with a large enough effect; inconclusive means small, poorly fitted or top-dose-only effect; inactive means no such curve, though single readings can be large or run the other way; note: 0% is about no effect; nearly all actives have a fitted effect of over 55% in size; growth read by luminescence after 48 h
RE007 growth inh – less growth of the S. pombe RE007 Vpr strain | S. pombe RE007 Vpr strain, BacTiter-Glo ATP luminescence, 24 h; control for the full effect not named in the record | Potency, µM (top dose mostly 92.2 µM), without a hit: at the top dose activity change, negative = less growth | AID 651644 | actives 0.21% (n = 360,000); active = well fitted falling curve with a large enough effect; inconclusive = small, poorly fitted or top-dose-only effect; inactive = no such curve, though single readings can be large or run the other way;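 note: % is set by controls: 0 for no effect and ±100 for the full control effect; nearly all actives have a fitted effect of over 50% in size; the assay follows cell death caused by Vpr and the record does not say whether a fall means rescue or toxicity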
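Fission yeast strain RE007, carrying one chromosomally integrated HIV-1 vpr copy, was seeded at OD 0.01 in PMG+AL medium with 23 nL pinned compound. After 24 h at 30 °C and 99% humidity, viability was read by BacTiter-Glo luminescence.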
StopGo reporter – lowers the luciferase signal of an FMDV 2A StopGo reporter. actives 1.2% (n = 410,000). human cells with a luciferase reporter of 2A StopGo recoding; control for the full effect not named in the record. Potency, µM (titrated, usually from 57.9 µM), for the others: at the top dose signal change, negative = less light; active = well fitted falling curve with a large enough effect; inconclusive = small, poorly fitted or top-dose-only effect; inactive = no such curve, though single readings can be large or run the other way; tested in HEK293T cells; note: % is set by controls: 0 for no effect and ±100 for the full control effect; nearly all actives have a fitted effect of over 45% in size; luciferase light after 4 h
An asterisk follows results filed as active; [ ] = another dose, or the depositor's remark. Potency is the fitted concentration of half-maximal effect. The list is partial; rates above refer to the full screens.

For Cc1ccc(S(=O)(=O)N2CCN(c3nn(C)c(=O)n(C)c3=O)CC2)cc1C the results were SARS PLP yeast -41%, RE007 growth inh 8% and StopGo reporter inconclusive.
For C[C@H](NC(=O)c1ccccc1)C(=O)N1CCN(Cc2ccc3c(c2)OCO3)CC1 the results were SARS PLP yeast -13%, RE007 growth inh 6% and StopGo reporter -15%.
For CC1C(=O)Nc2ccc(S(=O)(=O)N3CCCCCC3)cc21 (stereo not drawn) the results were SARS PLP yeast 1%, RE007 growth inh 16% and StopGo reporter 0%.
`C[C@]12c3[nH]c4ccccc4c3CCN1C(=O)C(CC(=O)NCc1ccco1)C[C@@H]2C(=O)N1CCOCC1` (stereo partly drawn) gave SARS PLP yeast 10%, RE007 growth inh -9% and StopGo reporter -10%.
`CC(C)C(=O)N1N=C2CCCCC2C1(O)C(F)(F)F` (stereo not drawn) gave SARS PLP yeast 2%, RE007 growth inh 15% and StopGo reporter -5%.
For Cc1noc(C)c1COc1cccc(C(=O)Nc2ccc3c(c2)OCO3)c1 the results were SARS PLP yeast -3%, RE007 growth inh -2% and StopGo reporter 44%[activator].
`CCN(CC(=O)Nc1c(F)cccc1F)C(=O)CSC(=S)N1CCCC1` gave SARS PLP yeast 2%, RE007 growth inh -1% and StopGo reporter -1%.
Screening CCN(C[C@H]1N[C@@](C)(C(=O)OC)[C@H]2C(=O)N(C)C(=O)[C@@H]12)C(=O)c1ccc(C(C)(C)C)cc1 returned SARS PLP yeast 4%, RE007 growth inh -9% and StopGo reporter -3%.
COc1ccc(C(=O)NNC(=O)C(=O)NC(C)c2ccccc2)cc1OC (stereo not drawn) was read as SARS PLP yeast -6%, RE007 growth inh 31% and StopGo reporter -9%.
Screening O=C(COC(=O)/C=C/c1ccc(F)cc1)Nc1nnc(-c2ccccc2)o1 returned SARS PLP yeast 0%, RE007 growth inh -4% and StopGo reporter -6%.
Screening Cc1cccc(NCC(=O)N/N=C/c2cccc(Br)c2)c1 returned SARS PLP yeast 0%, RE007 growth inh -1% and StopGo reporter -3%.
`O=S(=O)(Nc1cccc(S(=O)(=O)N2CCCCC2)c1)c1ccc(Cl)s1` gave SARS PLP yeast 0%, RE007 growth inh 1% and StopGo reporter -25%.
CCOC(=O)CCCCCC(=O)Nc1ccc2c(c1)C(=O)N([C@H](C)CO)C[C@@H](C)[C@H](CN(C)S(=O)(=O)c1cn(C)cn1)O2 was read as SARS PLP yeast 9%, RE007 growth inh 5% and StopGo reporter -23%.
C=CC[C@@H](CC(=O)N[C@H](CO)Cc1ccccc1)C(=O)N[C@H](C)COC(=O)[C@@H](CC=C)CC(=O)OC(C)(C)C was read as SARS PLP yeast 4%, RE007 growth inh -14% and StopGo reporter 0%.
Screening COC(=O)[C@@]12CCCCN1[C@H](c1ccc(-c3ccc(F)cc3)cc1)[C@@H]1C(=O)N(C)C(=O)[C@@H]12 returned SARS PLP yeast -2%, RE007 growth inh 7% and StopGo reporter -21%.
`COc1ccc(CNC(=O)CN2C(=O)C3C4C=CC(C4)C3C2=O)cc1` (stereo not drawn) gave SARS PLP yeast -1%, RE007 growth inh 11% and StopGo reporter 5%.
`CCN(C[C@H]1N[C@@](CC)(C(=O)OC)[C@H]2C(=O)N(Cc3ccccc3)C(=O)[C@@H]12)C(=O)c1ccc(F)cc1` gave SARS PLP yeast 5%, RE007 growth inh 4% and StopGo reporter -28%.
Screening CC1(C)Cc2cccc(OCC(=O)Nc3ccccc3F)c2O1 returned SARS PLP yeast -10%, RE007 growth inh -8% and StopGo reporter -7%.
`CN(CC(=O)Nc1ccc(Cl)c(C(F)(F)F)c1)C(=O)C1CCCO1` (stereo not drawn) gave SARS PLP yeast 1%, RE007 growth inh -10% and StopGo reporter inconclusive.
For C[C@H](CO)N1C[C@H](C)[C@@H](CN(C)Cc2ccc(Oc3ccccc3)cc2)Oc2c(NC(=O)c3ccncc3)cccc2C1=O the results were SARS PLP yeast -8%, RE007 growth inh -26% and StopGo reporter 24%.

Continued; it opens with the four that closed the last part.
`CCN(C[C@H]1N[C@@](CC)(C(=O)OC)[C@H]2C(=O)N(Cc3ccccc3)C(=O)[C@@H]12)C(=O)c1ccc(F)cc1` gave SARS PLP yeast 5%, RE007 growth inh 4% and StopGo reporter -28%.
Screening CC1(C)Cc2cccc(OCC(=O)Nc3ccccc3F)c2O1 returned SARS PLP yeast -10%, RE007 growth inh -8% and StopGo reporter -7%.
`CN(CC(=O)Nc1ccc(Cl)c(C(F)(F)F)c1)C(=O)C1CCCO1` (stereo not drawn) gave SARS PLP yeast 1%, RE007 growth inh -10% and StopGo reporter inconclusive.
For C[C@H](CO)N1C[C@H](C)[C@@H](CN(C)Cc2ccc(Oc3ccccc3)cc2)Oc2c(NC(=O)c3ccncc3)cccc2C1=O the results were SARS PLP yeast -8%, RE007 growth inh -26% and StopGo reporter 24%.
O=C(COC(=O)C(CO)NS(=O)(=O)c1ccc(Br)cc1)Nc1ccc2c(c1)OCCO2 (stereo not drawn) was read as SARS PLP yeast 0%, RE007 growth inh 1% and StopGo reporter -11%.
For COC(=O)[C@H]1C[C@H](C(=O)O)[C@@H](C)C1(C)C the results were SARS PLP yeast -23%, RE007 growth inh 9% and StopGo reporter -2%.
`COc1ccc(S(=O)(=O)N2CCOCC2)cc1NC(=O)CC(C)c1ccccc1` (stereo not drawn) gave SARS PLP yeast 2%, RE007 growth inh -12% and StopGo reporter -7%.
For O=C(CN1C(=O)NC(Cc2ccccc2)C1=O)Nc1ccccc1F (stereo not drawn) the results were SARS PLP yeast 5%, RE007 growth inh 1% and StopGo reporter 1%.
For C[C@H](CO)N1C[C@H](C)[C@@H](CN(C)C)Oc2c(NS(=O)(=O)c3cn(C)cn3)cccc2C1=O the results were SARS PLP yeast 4%, RE007 growth inh 9% and StopGo reporter 10%.
`COc1ccc2[nH]c3c(c2c1)CCN1C(=O)C(CC(=O)NCCc2ccccn2)C[C@H](C(=O)N2CCOCC2)[C@@]31CCC1CCCC1` (stereo partly drawn) gave SARS PLP yeast 11%, RE007 growth inh -13% and StopGo reporter -8%.
CC1=CC(c2ccccc2)=NS(=O)(=O)N1 was read as SARS PLP yeast 6%, RE007 growth inh 5% and StopGo reporter -10%.
For CCCCN(C(=O)c1ccc(-c2ccc(Cl)cc2)o1)c1c(N)n(CC(C)C)c(=O)[nH]c1=O the results were SARS PLP yeast 2%, RE007 growth inh inconclusive and StopGo reporter inconclusive.
`COc1cccc(C(=O)NCc2ccc3c(c2)cc(C)n3C)c1` gave SARS PLP yeast 0%, RE007 growth inh -7% and StopGo reporter 79%[activator].
C=CC[C@@H](Cc1ccc(F)cc1)C(=O)OC[C@@H]1CCCN1C(=O)[C@@H](CC=C)CC(=O)N(CCO)Cc1ccccc1 was read as SARS PLP yeast -6%, RE007 growth inh -6% and StopGo reporter 0%.
Cc1ccc(C(=O)NN=CC(=O)c2ccccc2)c(C)c1 was read as SARS PLP yeast 9%, RE007 growth inh -9% and StopGo reporter -55%.
For COc1ccc(NC(=O)C2CCC2)cc1S(=O)(=O)N1CCOCC1 the results were SARS PLP yeast -4%, RE007 growth inh 3% and StopGo reporter -5%.
COc1ccc(NC(=O)N(C)C[C@H]2Oc3ccc(NC(=O)Nc4c(C)noc4C)cc3C(=O)N([C@H](C)CO)C[C@H]2C)cc1 was read as SARS PLP yeast -24%, RE007 growth inh -9% and StopGo reporter -9%.
Screening COc1ccccc1N1CCN(C(=O)C2=CC=CN3CCS(=O)(=O)N=C23)CC1 returned SARS PLP yeast -1%, RE007 growth inh -5% and StopGo reporter -11%.
COc1ccc(-[n+]2c(C)cc(/C=C3\Sc4ccccc4N3C)cc2C)cc1 was read as SARS PLP yeast -4%, RE007 growth inh inconclusive and StopGo reporter inconclusive.
Screening COc1ccc(C)cc1NC(=O)c1cc(S(=O)(=O)N2CCCCC2)ccc1N1CCOCC1 returned SARS PLP yeast -5%, RE007 growth inh -21% and StopGo reporter 7%.
For Cc1ccc(OCC(=O)OCC(=O)N2c3ccccc3CC2C)cc1C (stereo not drawn) the results were SARS PLP yeast 2%, RE007 growth inh -16% and StopGo reporter -4%.
For CC(C)OC(=O)CN1CCN(c2ccc(Cl)cc2)CC1 the results were SARS PLP yeast 1%, RE007 growth inh 2% and StopGo reporter -15%.
Screening Cc1ccccc1NC(=O)CN1C(=O)NC2(CCc3ccccc32)C1=O (stereo not drawn) returned SARS PLP yeast 1%, RE007 growth inh -1% and StopGo reporter -6%.
`Cc1ccc(C(=O)COC(=O)CCNS(=O)(=O)c2ccccc2F)cc1` gave SARS PLP yeast -3%, RE007 growth inh -8% and StopGo reporter -6%.
O=C1CC(N2CCSCC2)C(=O)N1c1cccc(Cl)c1 (stereo not drawn) was read as SARS PLP yeast -17%, RE007 growth inh inconclusive and StopGo reporter -19%.
For COc1ccc(S(=O)(=O)N(C)C[C@H]2Oc3ccc(NC(=O)Nc4ccc(C(F)(F)F)cc4)cc3C(=O)N([C@H](C)CO)C[C@@H]2C)cc1 the results were SARS PLP yeast -3%, RE007 growth inh 22% and StopGo reporter -26%.
For CCN(CC)c1ccc(S(=O)(=O)N2CCOCC2)cc1NC(=O)c1cc(=O)c2ccccc2o1 the results were SARS PLP yeast -1%, RE007 growth inh 10% and StopGo reporter -15%.
`CC(=O)NS(=O)(=O)c1ccc(NC(=O)[C@@H]2CCCN2S(=O)(=O)c2ccc(Cl)cc2)cc1` gave SARS PLP yeast 1%, RE007 growth inh -12% and StopGo reporter -18%.
`O=C(CCNC(=O)c1ccc([N+](=O)[O-])cc1)NNC(=O)c1ccccc1F` gave SARS PLP yeast 0%, RE007 growth inh -2% and StopGo reporter -16%.
Screening Cc1ccc(C)c(NC(=O)c2cc(S(=O)(=O)N3CCCCC3)ccc2N2CCOCC2)c1 returned SARS PLP yeast 2%, RE007 growth inh 24% and StopGo reporter 16%.
`CCOC(=O)c1cc(NC(=O)Nc2ccc(Br)cc2)c(C)nc1C` gave SARS PLP yeast -1%, RE007 growth inh 9% and StopGo reporter 7%.
For COc1ccc(NC(=O)CC2SC(N3CCCCC3)=NC2=O)cc1OC (stereo not drawn) the results were SARS PLP yeast 2%, RE007 growth inh -1% and StopGo reporter -5%.
`COc1ccc(-c2sc3cc(OC)c(OC)cc3c2C#CC(C)(C)O)cc1` gave SARS PLP yeast -11%, RE007 growth inh 2% and StopGo reporter 0%.
`C[C@H](CO)N1C[C@H](C)[C@@H](CN(C)Cc2ccc(C(=O)O)cc2)Oc2c(cccc2N(C)C)C1=O` gave SARS PLP yeast 1%, RE007 growth inh -6% and StopGo reporter -8%.
`O=C(CN1CCN(Cc2ccccc2F)C1=O)NC1CCCC1` gave SARS PLP yeast 1%, RE007 growth inh -4% and StopGo reporter -10%.
`CCN(c1ccccc1)S(=O)(=O)c1ccc(C(=O)Nc2cccc(NC(C)=O)c2)cc1` gave SARS PLP yeast -2%, RE007 growth inh 19% and StopGo reporter inconclusive.
Cc1ccc(C)c(-n2c(SCC(=O)N3CCC(C(=O)O)CC3)nnc2-c2cccc(Cl)c2)c1 was read as SARS PLP yeast -1%, RE007 growth inh -12% and StopGo reporter -7%.
`N#Cc1ccc(NCC(=O)N2CCN(S(=O)(=O)c3ccccc3)CC2)cc1` gave SARS PLP yeast 2%, RE007 growth inh -5% and StopGo reporter -18%.
COc1cc(-c2ccc3oc(-c4cccc(C)c4)c(C#CC4(O)CCCCC4)c3c2)cc(OC)c1OC was read as SARS PLP yeast 6%, RE007 growth inh -8% and StopGo reporter 0%.
For COCCCNC(=O)CC1C[C@H](C(=O)N2CCCCC2)[C@@]2(C)c3[nH]c4ccccc4c3CCN2C1=O (stereo partly drawn) the results were SARS PLP yeast 0%, RE007 growth inh 7% and StopGo reporter -8%.
CN(c1ccccc1)S(=O)(=O)c1ccc(Cl)c(C(=O)NCc2ccccc2CN2CCCC2)c1 was read as SARS PLP yeast -3%, RE007 growth inh -18% and StopGo reporter inconclusive.
For O=C(NCc1ccccn1)C(=O)NCC(c1ccco1)N1CCOCC1 (stereo not drawn) the results were SARS PLP yeast 1%, RE007 growth inh -3% and StopGo reporter -6%.
For COc1cccc(C(=O)N(c2ccccc2)C2C=CS(=O)(=O)C2)c1 (stereo not drawn) the results were SARS PLP yeast 0%, RE007 growth inh 1% and StopGo reporter 9%.
`C[C@@]12C(=O)Nc3ccc(F)cc3C(=O)N1[C@H]1c3cc(Br)ccc3OC[C@@H]1[C@@H]2c1ccccc1` gave SARS PLP yeast 1%, RE007 growth inh 16% and StopGo reporter -27%.
Cc1ccc(CN(C)C(=O)COc2ccc(S(=O)(=O)N3CCCC3)cc2[N+](=O)[O-])c(C)c1 was read as SARS PLP yeast 4%, RE007 growth inh -1% and StopGo reporter -23%.
Screening CCC(C)(C)NC(=O)CCn1c(-c2ccccc2)cc(C(C)=O)c1C returned SARS PLP yeast 1%, RE007 growth inh 3% and StopGo reporter -1%.
